Assay outcomes (PubChem BioAssay)
KCNQ2 pot – enhances the rat KCNQ2 potassium channel; O88943; CHO-K1 KCNQ2, FluxOR thallium flux fluorescence; hits give high values; B-score at 10 µM; 0.54% of 310,000 active; AID 2239;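 active = fluorescence ratio B-score at least 3 SD of library B-scores, with initial fluorescence B-score within 3 SD, cut at about 5.3 in these data; same plate scores as AID 2156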;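 also: B-score of peak minus minimum over baseline fluorescence ratio after K+ and Tl+ stimulus; positive B-score means potentiation of KCNQ2 with more thallium influx and brighter signal; only the inactives scoring about 0 or higher are listed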
Target sequence (O88943 whole entry, looked up): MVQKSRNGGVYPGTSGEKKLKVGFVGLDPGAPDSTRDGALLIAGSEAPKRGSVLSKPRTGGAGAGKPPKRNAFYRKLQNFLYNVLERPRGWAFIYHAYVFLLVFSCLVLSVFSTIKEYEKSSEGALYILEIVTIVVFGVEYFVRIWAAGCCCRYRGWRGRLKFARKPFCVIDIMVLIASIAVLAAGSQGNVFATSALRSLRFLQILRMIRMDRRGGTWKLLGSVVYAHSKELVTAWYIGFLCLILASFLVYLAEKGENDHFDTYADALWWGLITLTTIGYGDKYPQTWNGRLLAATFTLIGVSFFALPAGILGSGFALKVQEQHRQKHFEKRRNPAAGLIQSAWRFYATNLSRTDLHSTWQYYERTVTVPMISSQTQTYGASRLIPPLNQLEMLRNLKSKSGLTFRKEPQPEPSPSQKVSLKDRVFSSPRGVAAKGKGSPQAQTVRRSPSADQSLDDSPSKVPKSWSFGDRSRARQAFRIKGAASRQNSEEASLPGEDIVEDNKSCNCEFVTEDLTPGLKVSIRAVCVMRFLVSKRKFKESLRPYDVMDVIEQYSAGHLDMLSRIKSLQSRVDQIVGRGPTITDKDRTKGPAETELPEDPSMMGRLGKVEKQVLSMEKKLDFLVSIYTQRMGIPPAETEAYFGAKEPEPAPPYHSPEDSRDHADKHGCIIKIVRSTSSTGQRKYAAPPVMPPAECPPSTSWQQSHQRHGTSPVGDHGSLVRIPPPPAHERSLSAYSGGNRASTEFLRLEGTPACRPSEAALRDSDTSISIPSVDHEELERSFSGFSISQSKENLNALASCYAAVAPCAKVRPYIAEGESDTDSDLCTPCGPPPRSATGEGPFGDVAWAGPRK
KCNQ2 pot baseline – second read-out of KCNQ2 pot, no call of its own (marks repeat the call); B-score; compound at 10 µM; measured here: initial fluorescence intensity artifact check;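 brightness before thallium and not channel activity; 0 = typical well and far values either way flag optical interference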
Starred values were filed as active, the others as inactive. Only part of the results is shown; count on the stated rates, not on these rows.

SMILES | KCNQ2 pot | KCNQ2 pot baseline
Cc1nnc(NC(=O)C2CCCN(S(=O)(=O)Cc3ccccc3)C2)s1 (centres undefined) | 2.04 | 1.26
O=C(Nc1nc(-c2ccc(Cl)cc2Cl)cs1)C1CCCO1 (centres undefined) | 0.34 | -0.82
COc1ccc2c(C)c(CCC(=O)NCCCN3CCCC3=O)c(=O)oc2c1C | 5.11 | 0.27
O=C(NCCN1CCc2ccccc2C1)C1CC(=O)N(C2CCCC2)C1 (centres undefined) | 0.28 | -0.12
O=C(N/N=C/c1ccc(-n2ccnc2)cc1)c1cccs1 | 0.61 | -0.58
O=C(Nc1ccc(S(=O)(=O)O)cc1)c1ccc2c(c1)S(=O)(=O)c1ccccc1C2=O | 1.18 | 0.09
CSc1sc(C(=O)N(C)C)c2c1S(=O)(=O)N(C)c1ccccc1-2 | 1.39 | -2.68
CCN1C(=O)c2ccc(-c3nc4ccccc4c(=O)o3)cc2C1=O | 1.74 | -0.66
CCOC(=O)N1CCC(NC(=O)c2cc(C(=O)Nc3ccc(F)cc3F)ccc2CO)CC1 | 5.05 | 0.76
CC(=O)c1cc(C#N)c(Oc2cc(C)cc(C)c2)nc1C | 0.37 | 1.09
CC(=O)c1cccc(CN2CCN(C3CCCCC3)C(CCO)C2)c1 (centres undefined) | 1.85 | -1.03
COCCNC(=O)c1cc2c(=O)n3cccc(C)c3nc2n(Cc2ccncc2)c1=N | 0.11 | 1.3
Nc1cc(N)nc(SCC(=O)c2ccc3c(c2)NC(=O)CO3)n1 | 1.2 | -0.16
COc1ccc(C(=O)N/N=C(\C)CC(=O)NC2CCCCC2)c(OC)c1 | 1.71 | -1.41
CS(=O)(=O)N1CCC(C(=O)Nc2ccc(Br)cc2F)CC1 | 1.62 | 0.71
COc1cc(C(=O)N/N=C/c2cccc(Oc3ccccc3)c2)ccc1O | 1.24 | 0.19
CCOc1ccccc1NC(=O)Cn1nnc(C(=O)NCCc2ccc(OCC)c(OCC)c2)c1N | 0.31 | 1.81
C=CCN1C(=O)C(C)S/C1=N\S(=O)(=O)c1ccc(Cl)cc1 (centres undefined) | 0.87 | -0.04
CCOC(=O)C1C(c2ccc(C)o2)NC(=O)NC1(O)C(F)(F)F (centres undefined) | 1.68 | 1.77
C=CCNC(=O)c1ccc(C(=O)c2ccccc2)cc1 | 1.88 | -0.94
Cc1nc(C(C)NC(=O)CCc2nnc(Cc3c[nH]c4ccccc34)o2)cs1 (centres undefined) | 0.16 | 1.19
O=C(Nc1cccc(Cl)c1)Nc1ccccc1C(=O)O | 0.94 | 0.37
CC(C)(NC(=O)N1CCCC1)c1cccc(C(C)(C)NC(=O)N2CCCC2)c1 | 0.55 | 0.01
COc1cccc(CC(=O)Nc2nc3ccccc3[nH]2)c1 | 3.33 | 5.86
CC(C)NC(=O)CN(c1cccc(Br)c1)S(C)(=O)=O | 0.62 | -0.03
COC(=O)c1ccc(OC)c(CN2CCCN(Cc3ccc(F)cc3)S2(=O)=O)c1 | 1.55 | -0.07
Cc1nc2sc(C(c3ccco3)N3CC(C)OC(C)C3)c(O)n2n1 (centres undefined) | 0.79 | -0.7
O=C(N/N=C/c1cccs1)c1cc(-c2ccc3ccccc3c2)n[nH]1 | 0.64 | 0.66
Nc1nonc1-n1nnc(C(=O)N/N=C/c2cccnc2)c1-c1ccccc1 | 2.77 | 0.69
O=C(CS(=O)(=O)Cc1ccccc1)Nc1ccc(S(=O)(=O)N2CCOCC2)cc1 | 0.37 | -1.45
CCCCNS(=O)(=O)c1ccc2nc(-c3cccnc3)cc(C(=O)NCCCN(CC)CC)c2c1 | 0.81 | -1.71
c1ccc(-c2ccccc2OCCCN2CCCC2)cc1 | 0.75 | -0.27
C=C1CCC(O)C2(C)CCC3C(C)C(=O)OC3C12O (centres undefined) | 1.39 | -2.46
O=C(Nc1cccnc1)c1ccc(CSc2ccccc2)cc1 | 1.81 | 1.06
COc1ccc(CNC(=O)/C=C/c2cc([N+](=O)[O-])ccc2OC(F)F)cc1 | 0.44 | 0.65
C=C(c1ccccc1O)n1ccnc1 | 0.04 | -0.6
CCC(=O)c1ccc(SC(=O)N(C)C)cc1O | 0.53 | 0
CC(Oc1ccc2c3c(c(=O)oc2c1)CCCC3)C(=O)NCc1ccncc1 (centres undefined) | 1.38 | -0.45
CCN(C(=O)COC(=O)c1cc(OC)c(OC)cc1[N+](=O)[O-])C1CCS(=O)(=O)C1 (centres undefined) | 0.77 | 0.11
CCOc1ccc(NC(=O)Nc2ccc(N(C)C(C)=O)cc2)cc1 | 0.27 | 1.45
Cc1ccc(CN2CCC(n3nccc3NC(=O)c3ccccc3C)CC2)o1 | 1.67 | -0.36
COc1ccc(N2C(=O)c3ccccc3NC2(C)C)cc1 | 0.47 | 0.85
COc1ccc(OC)c(Nc2nc(N)nc(CSc3nnc(-c4ccncc4)o3)n2)c1 | 0.75 | -0.26
CC(C)(C)c1ccc(/C=C/C(=O)N2CCOCC2)cc1 | 1.62 | -2.13
C[C@H]1CN(C2CCCCC2)C(=O)[C@@H]1CC(=O)NCc1ccccc1 | 1.3 | -1.99
COC(=O)CC(=O)Cc1nc(N)nc(Nc2ccc(C)c(C)c2)n1 | 1.11 | -1.09
Nc1c(O)cccc1C(=O)O | 0.02 | -0.34
C=CCOC(=O)C1=C[C@@H](c2coc3ccccc3c2=O)[C@H](CCCO)[C@@H](OCC)O1 | 0.39 | -2.54
CCc1ccc(OCC(=O)NC(=S)Nc2ccc(C)cc2C)c(Br)c1 | 1.7 | 0.65
Cc1ccc(S(=O)(=O)N2CCC(C(=O)OCC(=O)N(C)CC(=O)Nc3ccc(F)cc3)CC2)cc1C | 0.89 | -1.07

Entries above containing a furan ring, fused or not, in the order listed:
SMILES | KCNQ2 pot | KCNQ2 pot baseline
CCOC(=O)C1C(c2ccc(C)o2)NC(=O)NC1(O)C(F)(F)F (centres undefined) | 1.68 | 1.77
Cc1nc2sc(C(c3ccco3)N3CC(C)OC(C)C3)c(O)n2n1 (centres undefined) | 0.79 | -0.7
Cc1ccc(CN2CCC(n3nccc3NC(=O)c3ccccc3C)CC2)o1 | 1.67 | -0.36

Further records:
SMILES | KCNQ2 pot | KCNQ2 pot baseline
Cc1c(-c2ccccc2)n[nH]c1C(=O)N=Nc1c(O)[nH]c2ccccc12 | 0.32 | -1.85
CC(=O)NC1=NN(C(C)=O)C2(S1)C(=O)N(CC(C)C)c1ccc(C)cc12 (centres undefined) | 1.4 | -0.3
O=C(NC(=S)Nc1ccc(Cc2ccncc2)cc1)c1ccccc1F | 0.75 | 1.83
Fc1ccc(-c2oncc2-c2nnnn2-c2ccccc2)cc1F | 1.86 | -0.57
O=C(CCc1ccc(S(=O)(=O)NCCc2ccccc2)cc1)Nc1ccc2c(c1)OCCO2 | 1.33 | -0.06
COc1ccc(-c2cc(C(=O)Nc3c(C)nn(Cc4ccccc4)c3C)no2)cc1 | 0.85 | -0.69
COc1ccc(S(=O)(=O)NCCc2nnc3ccc(SCC(=O)Nc4cc(C)on4)nn23)cc1 | 1.54 | 0
CCOC(=O)c1c(C)nc(C(Cl)(Cl)Cl)nc1N | 0.38 | -0.16
CCN1CCc2c(sc(NC(=O)c3ccc(S(=O)(=O)N4CCCC4)cc3)c2C(=O)NC)C1 | 0.29 | 0.63
CCOc1ccc(-c2ccc(SCC(=O)NC3CCCCC3)nn2)cc1 | 0.11 | 1.43
O=C(CSc1nn(-c2ccccc2)c(=S)s1)NC(=O)NCc1ccco1 | 0.49 | -0.28
COC(=O)c1ccc(C)c(NC(=O)C2COc3ccccc3O2)c1 (centres undefined) | 1.76 | -1.05
O=C(CCc1ccccc1)Nc1ncc([N+](=O)[O-])s1 | 1.23 | -0.03
Cc1cc(C)c2c3c(sc2n1)C1(CCSCC1)C(C#N)=C(N)O3 | 0.49 | 0.29
Cc1ccc(S(=O)(=O)N(C)CC(=O)NC2CCCC2)cc1 | 0.39 | 1.42
COc1ccccc1NS(=O)(=O)c1cccc(C(=O)N/N=C/c2ccc(OCC(=O)O)cc2)c1 | 0.27 | 0.66
CCn1cc(C(=O)NN)c(=O)c2cc(F)c(N3CCCCC3)cc21 | 1.5 | 1.75
Nc1cccc(/C=C/C(=O)O)c1 | 0.03 | 0.37
O=C(CC1(O)C(=O)N(CN2CCOCC2)c2ccccc21)c1ccccc1 (centres undefined) | 0.26 | -0.24
CCCC(C(=O)NC1CCCC1)N(C(=O)Cn1nnc(-c2ccc(C)o2)n1)c1ccccc1F (centres undefined) | 0.33 | 3.09

Entries of single compounds from above. Screens in order: KCNQ2 pot, KCNQ2 pot baseline
Profile of COc1ccccc1NS(=O)(=O)c1cccc(C(=O)N/N=C/c2ccc(OCC(=O)O)cc2)c1 → 0.27, 0.66
Profile of O=C(CCc1ccccc1)Nc1ncc([N+](=O)[O-])s1 → 1.23, -0.03
Profile of Cc1ccc(S(=O)(=O)N(C)CC(=O)NC2CCCC2)cc1 → 0.39, 1.42

Going on with the list.
SMILES | KCNQ2 pot | KCNQ2 pot baseline
Cc1noc(C)c1S(=O)(=O)Nc1ccc(O)c2c(=O)cc(-c3ccccc3Cl)oc12 | 0.37 | 0.03
CN(CC(=O)Nc1ccccc1Cl)C(=O)COC(=O)c1ccc(=O)n(Cc2ccccc2)n1 | 0.17 | 0.74
Cc1ccc(-c2noc(C3CCN(S(=O)(=O)c4ccc5c(c4)OCCO5)CC3)n2)o1 | 0.36 | 1.67
COC(=O)c1ccc2c(=O)[nH]c(COC(=O)c3c(-c4ccccc4Cl)noc3C)nc2c1 | 0.98 | 1.48
O=C1OC(c2ccccc2)=N/C1=C\N1CCCCC1 | 0.39 | -1.72
Cc1ccc(OCC(=O)Nc2nnn(C)n2)c(C)c1 | 0.15 | -0.11
O=C(CCl)Nc1ccccc1C(=O)c1ccccc1 | 0.44 | -0.59
O=C(Nc1nc2ccccc2n1CCN1CCOCC1)c1ccc(COc2ccccc2Br)o1 | 0.61 | -0.05
Cc1ccc(NS(=O)(=O)c2ccc3c(c2)NC(=O)CCS3)c(C)c1 | 1.93 | 0.8
O=C(CNC(=O)c1ccccc1F)NC1CC1 | 0.03 | -0.67
COc1ccc(/C=C2/SC(=O)N(CCC(=O)Nc3ccc(C)cc3)C2=O)cc1OC | 0.85 | 1.56
O=C(c1ccco1)N1CCN(C(=O)c2cccc3c2C(=O)N(C2CCCCC2)C3)CC1 | 0.83 | 0.42
COc1cccc(C2CC(c3cccc(C)c3)n3ncnc3N2)c1 (centres undefined) | 0.96 | 2.58
CCOc1cc(/C=N/n2c(C)nnc2C)ccc1O | 0.77 | 1.74
O=C(Nc1ccccc1)OCCNC(=O)c1cccc(Cl)c1 | 1.48 | -2.16
Cc1ccc(C(=O)N/C(=C\c2ccc(C)o2)C(=O)O)cc1 | 1.2 | 0.84
CC1=CC2=NC(=O)/C(=C\c3cccn3CCOc3ccccc3C)C(=N)N2O1 | 1.15 | 0.84
CCOC(=O)N1CC=C2C(C#N)=C(N)C(C#N)(C#N)[C@H](c3ccsc3)[C@H]2C1 | 0.04 | 0.17
CCOc1ccc(-c2nnc(-c3cccs3)o2)cc1OCC | 0.83 | -0.12
CSc1nsc(SCC(=O)Nc2ccccc2C(=O)O)n1 | 1.41 | -0.74
COc1ccc(C(=O)Nc2ccc(Nc3ccccc3)cc2)cc1OC | 0.3 | -0.59
Cc1cc(NC(=O)COC(=O)[C@@H](NS(=O)(=O)c2ccccc2)C(C)C)no1 | 0.04 | -0.55
Cc1nn(CCCC(=O)Nc2cc(Oc3ccc(F)cc3)cc([N+](=O)[O-])c2)c(C)c1[N+](=O)[O-] | 0.01 | -0.79
O=C(Nc1ccc2c(c1)OCO2)c1cnc2n(c1=O)CCS2 | 0.77 | 0.33
COc1ccc(-c2[nH]ncc2/C=N\NC(=O)c2ccc(Br)o2)cc1OC | 0.46 | 1.84
CN1CCC(=O)N([C@H](COc2ccccc2)Cc2ccccc2)CC1 | 0.2 | -2.07
C(=C\n1nnc2ccccc21)/c1ccc[nH]1 | 1.3 | -0.3
CCn1c(N)c(C(=O)NCc2ccc3c(c2)OCO3)sc1=S | 0.18 | -0.04
OCCC1CN(Cc2cccn2-c2ccccn2)CCN1C1CCCC1 (centres undefined) | 0.31 | -0.23
O=S1(=O)NC[C@]23C[C@H](c4ccc(F)cc4)[C@@H](C[C@@H]21)O3 | 0.25 | 2.74
O=S(=O)(/N=C(/Nc1ccccc1F)c1ccccc1)c1ccccc1 | 1.21 | 0.26
O=C(NCC1CCCO1)c1cccc(N2CCCC2=O)c1 (centres undefined) | 0.47 | -0.19
CC(=O)C1=C(O)C(=O)N(CCC(=O)O)C1c1cccc(F)c1 (centres undefined) | 1.63 | -2.73
O=C(CCC(=O)NC12CC3CC(CC(C3)C1)C2)NC1CCCCC1 | 1.72 | 0.22
Cc1ccc(NC(=O)c2cc3ccccc3oc2=N)cc1 | 0.2 | 0.58
Cc1cc(NC(=O)c2cc(-c3ccccc3)on2)no1 | 1.47 | -0.01
CCc1cccc(C)c1NC(=O)CCCSc1nc2ccccc2s1 | 2.2 | 1.06
COc1ccc(-c2cc(C(F)(F)F)nc(SCC(=O)NCc3cccs3)n2)cc1OC | 0.36 | 0.08
O=C(NCCN1CCOCC1)C1CCN(S(=O)(=O)N2CCCC2)CC1 | 1.88 | 0.25
COc1ccc(N=C2C(=O)Nc3ccccc32)cc1 | 2.17 | 0.46
Fc1ccc(Br)cc1/C=N/n1cnnc1 | 1 | 0.64

Looked up above.
`CC(=O)C1=C(O)C(=O)N(CCC(=O)O)C1c1cccc(F)c1` (centres undefined) in KCNQ2 pot baseline reads -2.73
`Fc1ccc(Br)cc1/C=N/n1cnnc1` in KCNQ2 pot reads 1
`O=S(=O)(/N=C(/Nc1ccccc1F)c1ccccc1)c1ccccc1` in KCNQ2 pot baseline reads 0.26
`Cc1ccc(NC(=O)c2cc3ccccc3oc2=N)cc1` in KCNQ2 pot baseline reads 0.58
`O=C(CCC(=O)NC12CC3CC(CC(C3)C1)C2)NC1CCCCC1` in KCNQ2 pot reads 1.72
`O=C(NCCN1CCOCC1)C1CCN(S(=O)(=O)N2CCCC2)CC1` in KCNQ2 pot reads 1.88
